From PubChem BioAssay
VACV Venus inh = qHTS for Stage-Specific Inhibitors of Vaccinia Orthopoxvirus: Venus Reporter Primary qHTS | Vaccinia virus Venus reporter expression, fluorescence | Potency, µM (series often up to 36.5 µM), without a hit: top-dose activity change, negative = inhibition, most hits filed as inhibitors | actives 0.46% (n = 330,000) | AID 720580, 2013; active means well fitted inhibition curve with a large enough effect; inconclusive means small, poorly fitted or top-dose-only effect; inactive means no such curve, though single readings can be large or run the other way; tested in A549 cells; note: nearly all actives have a fitted effect of over 30% in size; inactives centre near -10
Vaccinia mCherry = qHTS for Stage-Specific Inhibitors of Vaccinia Orthopoxvirus: mCherry Reporter Primary qHTS. actives 0.63% (n = 310,000). Potency, µM (top dose mostly 36.5 µM), inactives show top-dose activity change, negative = inhibition, most hits filed as inhibitors. Vaccinia virus mCherry reporter infection, fluorescence; about a quarter of the inactives have no number; active = well fitted inhibition curve with a large enough effect; inconclusive = small, poorly fitted or top-dose-only effect; inactive = no such curve, though single readings can be large or run the other way; tested in A549 cells; note: nearly all actives have a fitted effect of over 35% in size; inactives centre near -10
Active calls of the source: *; i = inactive; ? = inconclusive; nt = not tested or not shown; [ ] = another dose, or the depositor's remark. % is set by controls: 0 for no effect and ±100 for the full control effect; potency is the fitted concentration of half-maximal effect.

Order of values – VACV Venus inh | Vaccinia mCherry
- COc1ccccc1N1CCN(CC(=O)c2c(C)[nH]c3ccccc23)CC1
 : -14% | i
- CCC(C(=O)Nc1ccsc1C(=O)OC)c1ccccc1 (stereo unspecified)
 : 0% | -5%
- C=CCSc1nc2sc3c(c2c(=O)[nH]1)CC(C)(CC)OC3 (stereo unspecified)
 : -14% | 0%
- Cc1cc(C)n(C(C)CC(=O)Nc2cccc(C(F)(F)F)c2)n1 (stereo unspecified)
 : -13% | -16%
- CC1CCCCN1C(=O)Cn1c(=O)oc2cc(S(=O)(=O)N3CCCCC3)ccc21 (stereo unspecified)
 : -15% | -17%
- CC1CCN(S(=O)(=O)c2ccc3c(c2)N(C)C(=O)CC(=O)N3C)CC1
 : -5% | -13%
- C[C@@H]1CNC(=O)c2c(C(=O)N[C@H](C)c3ccccc3)ncn21
 : -5% | -1%
- CCOc1ccc(NC(=O)Cn2cc(C(=O)c3ccccc3)c(=O)c3cc4c(cc32)OCCO4)cc1
 : -5% | -12%
- COc1ccc2c(c1)c1c(c(=O)n(Cc3ccccc3)c(=O)n1CC(=O)NCc1ccc(C)cc1)n2C
 : -3% | -6%
- C#CCOCCOCCOCCNc1nc(N2CCN(C(=O)[C@H]([C@@H](C)O)n3cc(CCCCN)nn3)CC2)nc(N2CCN(C(=O)[C@H]([C@@H](C)CC)n3cc(CCCN=C(N)N)nn3)CC2)n1
 : -11% | i
- CCOc1cc(/C=N/NC(=O)c2ccncc2)cc(Br)c1O
 : -1% | i
- CCOC(=O)C1(C)C=C(Nc2cccc(C)c2)C(=O)N1c1ccccc1 (stereo unspecified)
 : 6% | -12%
- CCn1c(=N)c(C(=O)NC)cc2c(=O)n3cccc(C)c3nc21
 : -13% | i
- CCOC(=O)CN1CC23C=CC(O2)C(C(=O)NCc2cccs2)C3C1=O (stereo unspecified)
 : 11% | -5%
- O=C(Cc1cccc(Cl)c1)Nc1ccc(Br)cc1
 : -4% | -9%
- Cc1ccc(C(=O)N(CCN2CCCCC2)CC2CCCN(C3CCCC3)C2)s1 (stereo unspecified)
 : -14% | -7%
- CC1(C)CC(OC(=O)c2ccco2)CC(C)(C)N1O
 : -3% | -12%
- CC(=O)CCC1C2C(O)C(C(C)C)C(OC(=O)/C=C/c3ccccc3)CC12C (stereo unspecified)
 : -2% | 6%
- CCOC(=O)Cn1c(C(F)(F)F)nc2nc(Cl)c(Cl)nc21
 : -23% | -24%
- Cc1cccc(NC(=O)c2ccccc2NC(=O)Cc2ccccc2)c1C
 : -6% | -8%
- Cc1cc(-c2ccccc2)cc(-c2ccccc2)[n+]1CCc1ccccc1
 : ? | ?
- CCOC(=O)N/N=C/c1c(F)c(F)c(F)c(F)c1F
 : -25% | -12%
- C[C@H](NC(=O)c1nc[nH]c1C(=O)NCC(=O)OCc1ccccc1)C(=O)OCc1ccccc1
 : -6% | i
- COCCNC(=O)c1ccc(N2CC3CC(C2)c2cccc(=O)n2C3)c(NC(=O)c2ccc(Br)o2)c1 (stereo unspecified)
 : 3% | -7%
- CCCCC(=O)N(C)c1c(CC)nc2c(OCCOc3ccc(F)cc3)cccn12
 : -10% | 16%
- Cc1ccc(C(=O)N2CCN(C(=O)c3ccccc3)C2c2ccc(N(C)C)cc2)cc1 (stereo unspecified)
 : -3% | i
- O=C(c1ccccc1)N1CCN(CC#CC2(O)CCCCC2)CC1
 : -9% | -10%
- S=c1[nH]c(-c2ccccc2)cn1/N=C/c1cccc2ccccc12
 : ? | ?
- Nc1ncnc2c1ncn2[C@@H]1O[C@H](CNS(=O)(=O)c2ccc(-c3ccno3)s2)[C@@H](O)[C@H]1O
 : -5% | -12%
- CC1=C(C(=O)OCC2CCCCC2)C(c2cccc(F)c2F)CC(=O)N1 (stereo unspecified)
 : 2% | 2%
- CCC(=O)OC(Cc1ccccc1)(c1ccccc1)[C@H](C)CN(C)C (stereo partly specified)
 : -13% | -1%
- O=C(CSc1nc2ccccc2[nH]1)N1c2ccccc2Sc2ccccc21
 : -12% | i
- COC(=O)c1c(NC(=O)Cc2cccs2)sc(C(=O)NC2CCCCC2)c1C
 : -16% | i
- O=C(Nc1cccc(Cl)c1Cl)c1cc2nc(-c3ccc(Cl)cc3)cc(C(F)(F)F)n2n1
 : 3% | 5%
- Cc1cccc(OCC(=O)Nc2ccncc2)c1
 : 0% | -4%
- Cc1ccc(N(C)C(=O)Cn2ncc3c([nH]c4ccccc43)c2=O)cc1C
 : -5% | -11%
- O=C(/C=C/c1cccs1)N1CCOCC1
 : -14% | i
- COc1ccc(NC(=O)c2c(NCc3sccc3C)sc3c2CCCCC3)c(OC)c1
 : 6% | -9%
- CC(O)(C(=O)c1ccccc1)c1ccccc1 (stereo unspecified)
 : 3% | 30%[activator]
- Cc1c(C(=O)N2CCCC2)oc2c1-c1nn(CC(=O)NCc3ccccc3F)cc1CC2
 : -25% | -29%
- O=S1(=O)CC(N2CCN(CCO)CC2)CN1C1CCCC1 (stereo unspecified)
 : 8% | 24%
- O=S(=O)(c1ccc(SCc2ccc(Br)cc2)nc1)N1CCCCC1
 : -14% | -14%
- Cc1ccnc(SCc2cc(=O)c(OC(=O)c3ccc(S(=O)(=O)N4CCCC4)cc3)co2)n1
 : 1% | -22%
- CC(Cc1ccccc1)C(=O)NCc1nc2ccccc2s1 (stereo unspecified)
 : -17% | i
- CC1CN(S(=O)(=O)c2cccc(C(=O)N(Cc3nnc(-c4ccccc4Cl)o3)C3CC3)c2)CC(C)O1 (stereo unspecified)
 : -12% | -3%
- CCOC1=C2CN(S(=O)(=O)c3ccc(C)cc3)[C@H](c3ccc(CC)cc3)C[C@@H]2N(S(=O)(=O)c2ccc(C)cc2)[C@H](c2ccccc2)C1
 : -23% | 13%
- COc1ccc(-c2csc(-n3ncc(-c4ccccn4)c3N)n2)cc1
 : -5% | -1%
- CCc1ccc(S(=O)(=O)NCc2cccn2Cc2cccc(C)c2)cc1
 : 4% | -13%
- CCN(CC)C(=O)c1sc(NC(=O)c2ccc3c(c2)OCO3)c(C(N)=O)c1C
 : -23% | -19%
- CCN1CCN(CCNC(=O)CS(=O)(=O)Cc2nc(-c3ccc(C)cc3)oc2C)CC1
 : -20% | -20%
- O=c1c([N+](=O)[O-])c(N2CCCCC2)c2ccccc2n1-c1ccccc1
 : -17% | nt
- COc1ccc(C2CC(c3c(O)cc(C)oc3=O)=NCCS2)c(OC)c1 (stereo unspecified)
 : ? | ?
- CN1C(=O)N(CC(=O)Nc2ccc(C(F)(F)F)cc2)C(=O)C12CCCCC2
 : -21% | -3%
- Fc1ccc(NC(=S)N2CCN(c3ncccn3)CC2)cc1
 : 2% | -7%
- Cc1ccccc1NC(=O)C(C)O/N=C/c1cccc([N+](=O)[O-])c1 (stereo unspecified)
 : -12% | -22%
- Cc1ccccc1OCC(O)CNC1CCCC1 (stereo unspecified)
 : -5% | -16%
- Cc1cccc(C)c1NC(=O)COC(=O)C1CC(=O)N(Cc2ccccc2)C1 (stereo unspecified)
 : -6% | -15%
- O=C(O)C1CCC2CCCC21 (stereo unspecified)
 : 10% | 2%
- CN(C(=O)COC(=O)C1CCN(S(=O)(=O)c2ccc(Cl)cc2)CC1)C1CCS(=O)(=O)C1 (stereo unspecified)
 : -2% | -9%
- CN1CC(=O)N(CC(=O)N2CCC(Cc3ccccc3)CC2)C1=O
 : 1% | -9%

Next section.
Order of values – VACV Venus inh | Vaccinia mCherry
- O=C(CCSc1ccccc1)NNC(=O)c1ccccc1F
 : -1% | -14%
- O=C(O)c1cc([N+](=O)[O-])ccc1NCc1ccccn1
 : 6% | -11%
- COc1ccc(-c2nn(-c3ccccc3)cc2CO)cc1
 : -15% | nt
- Cc1cccc(-c2nc(C)cc(=O)[nH]2)c1
 : -12% | 0%
- CSc1ccccc1NC(=O)c1cc(-c2ccco2)on1
 : -1% | -4%
- COc1ccccc1-c1cc(C(=O)N/N=C/C=C/c2ccccc2[N+](=O)[O-])c2ccccc2n1
 : -12% | -8%
- CCC(=O)Nc1cccc(SC)c1
 : -1% | i
- COc1ccc(Nc2ccc(Cl)nn2)cc1
 : -6% | -22%
- CN1CCN(c2nc3c(S(=O)(=O)c4ccc(Br)cc4)nnn3c3ccsc23)CC1
 : ? | ?
- CC(C)Cc1oc(C(=O)O)cc1CN
 : -15% | ?
- COCOCCn1cc(CN2CCS(=O)(=O)N(Cc3ccc(-c4ccncc4)cc3)C(CC(C)C)C2=O)nn1 (stereo unspecified)
 : -11% | 0%
- CCCC1=NN(C(=O)Cc2ccc([N+](=O)[O-])cc2)C(O)(C(F)(F)F)C1 (stereo unspecified)
 : -13% | -6%
- COc1ccc(-n2nc(C(=O)NCC(=O)N3CCC(C(N)=O)CC3)c3ccccc3c2=O)cc1
 : -10% | -9%
- CCOC(=O)C1CCCN(C(=O)c2cc(COc3ccc(C)nc3)on2)C1 (stereo unspecified)
 : -21% | -20%
- CC(C)CNc1nc(NC(C)(C)C)nc(Oc2ccc(=O)[nH]n2)n1
 : -2% | -12%
- CN=C1SC(CC(=O)Nc2ccccc2F)C(=O)N1C (stereo unspecified)
 : -9% | i
- CCN1C[C@@H]2[C@@H]3C(=O)N(C)C(=O)[C@@H]3[C@](CC)(C(=O)OC)N2C1=NCc1ccccc1
 : 0% | ?
- O=C(Cn1c(=O)oc2ccccc21)Nc1ccc(C(=O)O)cc1
 : -10% | -13%
- Cc1ccc2occ(-c3cc(-c4ccc(F)cc4)nc4c3COc3ccc(F)cc3-4)c(=O)c2c1
 : 5% | -1%
- COCCCNC(=O)/C=C/c1ccc(Cl)cc1Cl
 : -5% | -15%
- CCOCCc1nn2c(=O)cc(COC(=O)c3ccc(NC(=O)C(C)(C)C)cc3)nc2s1
 : -14% | -7%
- Cc1ccc(C)c(CN2CCCN(Cc3ccccc3C)S2(=O)=O)c1
 : -5% | -3%
- O=C(CSc1ccc2nnc(-c3ccccn3)n2n1)Nc1ccc2c(c1)OCCO2
 : -14% | 1%
- CC(C)OC(=O)Nc1ccc(-c2ccc(NC(=O)OC(C)C)cc2Cl)c(Cl)c1
 : -16% | i
- CCCN(CCO)CCCc1ccccc1
 : -11% | nt
- COc1cccc(-c2oc3c(c2C#CCCO)C(O)CCC3)c1 (stereo unspecified)
 : -4% | 37%[activator]
- CC(=O)OC[C@@H]1CN(Cc2cccc(C(F)(F)F)c2)C[C@H](n2cnc3c(NCc4ccco4)ncnc32)O1
 : -2% | 7%
- Cc1cc(/C=C2/NC(=O)NC2=O)c(C)n1-c1ccncc1
 : -1% | -13%
- Cc1ncc2c(c1CNC(=O)c1ccccc1F)CCN(C(=O)c1csc(-c3cccs3)n1)C2
 : -12% | -21%
- CC1CN=C(c2ccccc2)O1 (stereo unspecified)
 : -13% | -19%

Compound profiles (already shown). Screens in order: VACV Venus inh, Vaccinia mCherry
Results for Cc1ccc(N(C)C(=O)Cn2ncc3c([nH]c4ccccc43)c2=O)cc1C = -5%, -11%
Results for Cc1cc(/C=C2/NC(=O)NC2=O)c(C)n1-c1ccncc1 = -1%, -13%
Results for Cc1c(C(=O)N2CCCC2)oc2c1-c1nn(CC(=O)NCc3ccccc3F)cc1CC2 = -25%, -29%
Results for COC(=O)c1c(NC(=O)Cc2cccs2)sc(C(=O)NC2CCCCC2)c1C = -16%, i

(more compounds)
Order of values – VACV Venus inh | Vaccinia mCherry
- COc1ccc(C(=O)NCCSc2ccccc2)cc1OC
 : -7% | i
- CCc1ccc(NS(=O)(=O)c2ccc3[nH]c4c(c3c2)CCCCCC4)cc1
 : -4% | -13%
- COc1ccc(NC(=O)Cn2c(=O)sc3ccccc32)cc1
 : -17% | nt
- O=C(Cn1cnc2c(OCc3ccccc3)ncnc21)NCc1ccc2[nH]ccc2c1
 : -27% | -9%
- COC(=O)C[C@@H]1CC[C@H](NS(=O)(=O)c2ccccc2F)[C@@H](CO)O1
 : 12% | -1%
- O=S(=O)(Oc1ccc(C(=S)N2CCOCC2)cc1)c1ccc(Cl)cc1
 : -16% | -21%
- Cc1cccc(N2CCN(C(=O)c3ccc4c(c3)N(Cc3cccc(Cl)c3)C(=O)c3ccccc3S4=O)CC2)c1C (stereo unspecified)
 : -19% | -28%
- COc1ccc(CCNC(=O)CSc2nc(O)c(C(C)C)c(=O)[nH]2)cc1OC
 : -9% | i
- Cc1ccoc1C(=O)N1CCCCC1C(=O)O (stereo unspecified)
 : -1% | 11%
- Cc1ccc(Cl)c2c1N[C@@H](c1ccc(C(=O)O)cc1)[C@H]1CC=C[C@@H]21
 : 0% | 2%
- O=C(NCc1ccccc1)C1C(c2ccc3c(c2)OCO3)=Nc2ccccc2N1C(=O)c1ccccc1 (stereo unspecified)
 : -26% | ?
- CCOc1ccccc1C(=O)NCCN1CCC(n2c(=O)[nH]c3ccccc32)CC1
 : -18% | -15%
- Fc1cccc(-n2c(-c3ccco3)nc3nc4ccccc4nc32)c1
 : -10% | nt
- COc1ccc(/C(O)=C2\C(=O)C(=O)N(CCN(C)C)C2c2cc(OC)c(OC)c(OC)c2)c(C)c1 (stereo unspecified)
 : 7% | nt
- CC(Oc1ncnc2ccccc12)C(=O)Nc1cccc(S(=O)(=O)N2CCOCC2)c1 (stereo unspecified)
 : -16% | i
- CCc1nc2nc(C)c(NS(=O)(=O)c3ccc(C)c(C)c3)c(=O)n2[nH]1
 : -3% | -7%
- O=C1OCCN1C(=O)[C@H]1[C@H](c2ccc(Cl)cc2)C(c2ccc(F)cc2)=NN1c1ccc(Br)cc1
 : ? | -14%
- CN(C)c1ccc(C=C2C(=O)NC(=S)NC2=O)cc1[N+](=O)[O-]
 : -4% | i
- O=C(Nc1ccccc1)N1CCN(Cc2ccc3c(c2)OCO3)CC1
 : -7% | i
